# GALR2 agonist: agonists of human galanin receptor 2 (GALR2) | activation, %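 (tested at 5 µM)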 | actives 0.48% (n = 140,000) | GALR2-expressing cells, agonist activation read-out;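 active means above mean plus 3 SD of all compounds, about 5% in these data, not always enough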;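 further: 0% = vehicle buffer wells and 100% = reference agonist at full effect; tested in CHO reporter cells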
# HSV augment: HSV replication enhancement | actives 0.005% (n = 220,000) | AID 1956 | HSV replication augmentation in cells, fold increase | maximum fold increase;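 active means peak rise of 1.5-fold or more in the series; tested in PC3 cells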;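 further: first round at 10 µM; read as green reporter fluorescence; hits show the peak of a series up to 25 µM; 1 = signal of infected wells without compound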
# PKD1 inh: PKD1 (human) kinase inhibition; Q15139; PKD1 kinase fluorescence polarization assay; inhibition, %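 (about 10 µM by stock and volumes)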; actives 0.056% (n = 200,000); AID 797;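 active means inhibition of 50% or more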;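 further: controls were vehicle for no effect and a reference inhibitor for full effect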
# Target sequence (Q15139 whole entry, looked up): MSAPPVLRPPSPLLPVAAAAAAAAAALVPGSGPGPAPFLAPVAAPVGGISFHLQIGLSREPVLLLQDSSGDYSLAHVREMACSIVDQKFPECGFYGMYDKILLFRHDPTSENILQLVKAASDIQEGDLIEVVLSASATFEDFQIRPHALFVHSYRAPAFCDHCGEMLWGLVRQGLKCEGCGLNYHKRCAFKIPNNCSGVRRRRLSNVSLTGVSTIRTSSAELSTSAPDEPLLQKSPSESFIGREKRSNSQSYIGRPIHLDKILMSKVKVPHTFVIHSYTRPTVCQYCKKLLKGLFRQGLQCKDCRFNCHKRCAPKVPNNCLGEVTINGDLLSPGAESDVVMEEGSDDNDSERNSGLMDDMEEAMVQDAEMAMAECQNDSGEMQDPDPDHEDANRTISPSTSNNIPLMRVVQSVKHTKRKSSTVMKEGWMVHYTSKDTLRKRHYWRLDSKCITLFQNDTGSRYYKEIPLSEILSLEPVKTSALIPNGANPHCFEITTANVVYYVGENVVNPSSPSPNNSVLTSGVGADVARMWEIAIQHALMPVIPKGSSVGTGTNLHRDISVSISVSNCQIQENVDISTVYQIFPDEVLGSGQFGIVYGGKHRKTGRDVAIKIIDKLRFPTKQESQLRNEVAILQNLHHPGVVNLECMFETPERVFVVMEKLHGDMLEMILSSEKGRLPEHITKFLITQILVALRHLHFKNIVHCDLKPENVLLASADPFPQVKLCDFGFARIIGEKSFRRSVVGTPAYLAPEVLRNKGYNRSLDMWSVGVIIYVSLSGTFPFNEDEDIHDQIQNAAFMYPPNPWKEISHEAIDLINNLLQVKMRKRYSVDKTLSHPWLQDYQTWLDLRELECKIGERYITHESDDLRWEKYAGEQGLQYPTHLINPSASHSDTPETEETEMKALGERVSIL
# Insulin prom inh: TRM-6 insulin promoter activity inhibition. TRM-6 cells (human fetal islet line), insulin promoter-eGFP reporter, imaging; reporter expression induced with tamoxifen. inhibition, % at 2 µM. actives 0.9% (n = 130,000);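 active means inhibition above the mean plus 3 SD, with well images judged a real hit on visual review, cut at about 60% in these data, passing the limit was not always enough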
# RGS16-Gao: RGS16-Galphao interaction regulator (human) | O15492+P09471 | bead-based flow cytometry RGS16-Galphao binding, fluorescence; actives lie on both sides | AID 1441 | binding response (% of control), % at 10 µM | actives 0.38% (n = 220,000);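 active means below 25% or above 175%, edge rows of some plates excepted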;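 further: Galphao activated by GDP with aluminum fluoride before binding; 100% = wells without compound and 0% = beads without RGS; some results beyond the cut were filed as inactive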
# Insulin prom inh cell count: second read-out of Insulin prom inh, no call of its own (marks repeat the call); normalized cell count, %; measured here: cell count, toxicity; reference of the scale not given here;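 cells exposed to compound for 48 h; stained nuclei by imaging scaled within each plate; lower means fewer cells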
# HSV augment primary fold: further read-out of HSV augment, marked with its call; fold increase; compound at 10 µM; measured here: primary screen fold increase 10 uM; tested in PC3 cells;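 GFP signal in the first replicate; 1 = infected wells without compound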
# An asterisk follows results filed as active; i = inactive; . = no result given. Some of the compounds tested. The share of hits here may be higher or lower than overall.
# The first 5 compounds (preview)
SMILES,GALR2 agonist,HSV augment,HSV augment primary fold,PKD1 inh,Insulin prom inh,Insulin prom inh cell count,RGS16-Gao
CC1CCSP(=O)(Oc2ccccc2)O1 (configuration not stated),.,i,0.91,.,.,.,93
N#CCCn1cc(C(=O)Nc2ccc([N+](=O)[O-])cc2)c(-c2ccccc2)n1,.,i,1,.,.,.,96
O=C(COC(=O)Cc1ccccc1)Nc1cc(S(=O)(=O)N2CCOCC2)ccc1N1CCCC1,-0.2,i,1,-2,-45,157,98
N#Cc1cc(F)c(N2CCNCC2)cc1Cl,-1.6,i,1,7,18,68,99
C#CCN(C)[C@H](C)Cc1ccccc1,.,i,0.8,.,.,.,96

# The listing, repeating the preview:
SMILES,GALR2 agonist,HSV augment,HSV augment primary fold,PKD1 inh,Insulin prom inh,Insulin prom inh cell count,RGS16-Gao
CC1CCSP(=O)(Oc2ccccc2)O1 (configuration not stated),.,i,0.91,.,.,.,93
N#CCCn1cc(C(=O)Nc2ccc([N+](=O)[O-])cc2)c(-c2ccccc2)n1,.,i,1,.,.,.,96
O=C(COC(=O)Cc1ccccc1)Nc1cc(S(=O)(=O)N2CCOCC2)ccc1N1CCCC1,-0.2,i,1,-2,-45,157,98
N#Cc1cc(F)c(N2CCNCC2)cc1Cl,-1.6,i,1,7,18,68,99
C#CCN(C)[C@H](C)Cc1ccccc1,.,i,0.8,.,.,.,96
COc1cc(/C=C2\C(=O)NC(=O)N(c3ccc(C)cc3)C2=O)cc(OC)c1O,.,i,1.2,8,.,.,95
CN(C)C(=O)Oc1ccc(Br)cc1C(=O)Nc1ccc(F)c(Cl)c1,.,i,1,.,.,.,105
CCOc1ccccc1-n1c(O)c(C=Nc2c(C)n(C)n(-c3ccccc3)c2=O)c(=O)[nH]c1=O,-3.5,i,1,-7,.,.,105
O=c1[nH]c(O)c(N=Nc2cc(C(F)(F)F)ccc2Cl)c(=O)[nH]1,.,i,0.91,-6,8,42,106
CCc1c(C(=O)NN2C(=O)C3C4CCC(O4)C3C2=O)csc1C (configuration not stated),0.0,i,0.89,-1,-8,121,89

# Some of the entries above in a different format:
mol | GALR2 agonist | HSV augment | HSV augment primary fold | PKD1 inh | Insulin prom inh | Insulin prom inh cell count | RGS16-Gao
CCOc1ccccc1-n1c(O)c(C=Nc2c(C)n(C)n(-c3ccccc3)c2=O)c(=O)[nH]c1=O | -3.5 | i | 1 | -7 | . | . | 105
O=c1[nH]c(O)c(N=Nc2cc(C(F)(F)F)ccc2Cl)c(=O)[nH]1 | . | i | 0.91 | -6 | 8 | 42 | 106

# Further entries.
SMILES,GALR2 agonist,HSV augment,HSV augment primary fold,PKD1 inh,Insulin prom inh,Insulin prom inh cell count,RGS16-Gao
Cc1nc2ccc(Cl)cn2c1P(=S)(N1CCOCC1)N1CCOCC1,-1.0,i,0.88,-4,.,.,106
CCCC(C)C1(CC)C(=O)NC(=O)N=C1N (configuration not stated),-0.1,i,0.95,9,20,135,98
CCOc1ccc(-c2cc(C)[n+](CCN3CCOCC3)c(-c3ccc(OCC)cc3)c2)cc1,.,i,0.94,.,.,.,102
COc1ccc(CCNC(=O)COC(=O)Cc2ccccc2)cc1,0.1,i,0.91,-18,.,.,108
COc1ccc(CCn2c(O)c(C=Nc3ccc(F)cc3)c(=O)[nH]c2=O)cc1OC,.,i,1.1,.,.,.,100
C/C(=N\N1CCCCC1)c1c(O)[nH]c(=O)[nH]c1=O,0.9,.,.,3,.,.,106
CCn1c(P(C)(=O)O)nc2cc(NC(=O)c3ccccc3F)ccc21,.,i,0.85,-6,17,202,105
Cc1ccccc1-n1c(C)cc(/C=C2/C(=O)NC(=O)N(Cc3ccco3)C2=O)c1C,1.6,.,.,5,.,.,93
CC(/C=N/NC(=O)c1n[nH]c2c1CCC2)=C\c1ccccc1,2.0,i,0.6,-1,-58,6,114
CCn1cc(C(=O)c2ccccc2)c2ccccc21,-2.9,i,0.95,2,21,81,99
CC12CN3CC(C)(CN(C1)C31CCOCC1)C2=O,-2.6,i,0.98,3,.,.,120
CCc1nnc(NC(=O)CCc2nc(C3=CCN(C)CC3)no2)s1,-2.9,i,1,0,16,174,.
O=C1N(c2nncs2)CCN1[N+](=O)[O-],.,i,0.92,.,.,.,98
CCn1cc(/C=c2/sc3n(c2=O)C2c4ccccc4OC(C)(N=3)C2C(=O)OC)c(C)n1 (configuration not stated),.,i,0.96,5,-25,69,207
CCS(=O)(=O)NCc1nnc2n1-c1ccc(Cl)cc1C(c1ccccc1)=NC2,-0.7,i,1.1,-4,-38,86,30
O=C(Nc1ccc(Cl)cc1C(=O)c1ccccc1)c1ccc(Br)o1,-1.4,i,0.98,0,-69,99,103
CCOP(=O)(OCC)c1cccc(O)c1,.,i,1.1,-2,.,.,100
CN(C)P(=O)(CCl)Nc1ccccc1 (configuration not stated),-1.0,i,1,4,.,.,105
CC(=O)C1C2c3ccccc3OC1(C)N=c1s/c(=C/c3cn(C)nc3C)c(=O)n12 (configuration not stated),-1.2,i,0.96,-8,.,.,98
Cc1cc(C)c(-n2c(O)c(/C=N/N3CCCCC3c3cccnc3)c(=O)[nH]c2=O)c(C)c1 (configuration not stated),0.6,i,1.2,5,.,.,42
O=C(CNC(=O)OCc1ccccc1)Nc1ccc(Br)cc1C(=O)c1ccccc1,-1.1,i,0.81,-10,0,70,99
CCOC(=O)N1CCN(C(C)C(=O)c2c[nH]c3ccccc23)CC1 (configuration not stated),-1.1,i,1,8,8,76,100
C/C(=N\Nc1ccccc1)c1c(O)[nH]c(=O)[nH]c1=O,.,i,1.1,.,.,.,108
O=c1[nH]c(=O)n(Cc2ccco2)c(O)c1C=NC1CCN(Cc2ccccc2)CC1,.,i,0.88,.,.,.,104
COc1cc2c(cc1OC)C(C(=O)N1CCC3(CC1)OCCO3)C(c1ccccc1F)N(C)C2=O (configuration not stated),-0.3,i,1,6,-21,84,125
Cc1cc(NC(=O)COC(=O)c2c(C)nn(Cc3ccccc3Cl)c2C)no1,-2.4,i,0.93,-6,19,135,104
CC(C)CCNC(=O)c1c(N)n(Cc2ccc3c(c2)OCO3)c2nc3ccccc3nc12,9.6,i,0.9,-3,-41,111,113
O=c1cccc2n1CC1CC2CN(C(c2ccccc2)c2sc3ncnn3c2O)C1 (configuration not stated),-0.2,i,0.86,-2,.,.,103
C/C(=N\NC(=S)Nc1ccccc1)c1c(O)n(C)c(=O)n(C)c1=O,-1.8,i,0.98,6,0,114,57
CN1C(=O)N(C)C(=O)C2(Cc3cc([N+](=O)[O-])ccc3N(C)C2)C1=O,.,i,0.93,-5,-33,99,108
CC1(C)C(c2ccccc2)=NC(c2cccnc2)=[N+]1[O-],-2.5,i,0.92,7,.,.,111
Cc1ccc(NC(=O)CN2C(=O)CN=C(c3ccccc3)c3cc(Cl)ccc32)cc1,-1.3,i,1.1,-7,.,.,102
CCC1(CC)C(=O)N(Cc2ccccc2)C(=O)N(Cc2ccccc2)C1=O,-2.8,i,0.72,-4,-3,107,96
C[C@]12CC[C@@H](O)C[C@@H]1CC[C@@H]1[C@@H]2CC[C@]2(C)[C@@H](O)CC[C@@H]12,-1.4,i,0.71,1,10,135,102
CC(C)OP(=O)(OC(C)C)C(O)c1cccnc1 (configuration not stated),-0.3,i,1,1,0,128,96
Cc1nn(Cc2ccccc2)c(Cl)c1C(=O)OCC(=O)NCC1CCCO1 (configuration not stated),.,i,1,-6,.,.,97
Cc1cc(/C=C2\C(=O)NC(=O)N(c3ccc(Br)cc3)C2=O)c(C)n1C,.,i,1.2,-8,.,.,98
O=C(c1sc2ccccc2c1Cl)N1CCC2(CC1)OCCO2,-4.3,i,0.77,-2,-42,211,103
CCCCc1nc2ccccc2c(=O)n1-c1ccccc1O,-0.8,i,1,-14,18,87,103
C/C(=N\NC(N)=O)c1c(O)n(C)c(=O)n(C)c1=O,.,i,0.69,3,.,.,91
CC1CCC(C(=O)NC(C(=O)N2CCC3(CC2)OCCO3)C(C)C)CC1 (configuration not stated),-2.1,i,0.93,-8,-110,120,94
CC1=NN(c2ccccc2)C(=O)/C1=C/c1c(O)[nH]c(=O)[nH]c1=O,.,i,0.99,1,.,.,89
CC(C)(C)n1cc(C(=O)c2ccc3ccccc3c2O)cn1,.,i,1.1,-4,45,81,109
CCC(C)n1c(O)c(C=Nc2cccc(C(F)(F)F)c2)c(=O)[nH]c1=S (configuration not stated),-2.2,i,1.3,6,14,114,108
CCCCn1c(O)c(/C=N/NC(=O)c2ccncc2)c(=O)[nH]c1=O,.,i,1,.,.,.,105
COc1ccc(C(=O)C2CCCN(Cc3ccsc3)C2)cc1OC (configuration not stated),.,i,1,-4,.,.,189
C=Cn1ccnc1P(=S)(c1cc(N(CC)CC)ns1)c1nccn1C=C,0.1,i,0.97,3,-64,108,102
CN(CCCCC(=O)/C=N/O)Cc1ccccc1 (tested in a mixture with another compound),-0.9,i,1,-7,-4,158,101
CCN(CC)CCN=Cc1c(O)n(C2CCCCCC2)c(=O)[nH]c1=O,-0.9,i,0.92,2,.,.,102
CCCCC1(CCCC)C(=O)NC(=Nc2cccc(C)c2)NC1=O,-2.5,i,1,-5,-44,58,94

# Additional compounds.
SMILES,GALR2 agonist,HSV augment,HSV augment primary fold,PKD1 inh,Insulin prom inh,Insulin prom inh cell count,RGS16-Gao
CCCCCCC(=O)N/N=C/c1c(O)n(CCc2ccccc2)c(=O)[nH]c1=O,.,i,1.1,.,.,.,94
O=C1C2CCCN2C(c2cccnc2)N1c1ccc(Cl)cc1 (configuration not stated),-2.3,i,0.85,-10,.,.,60
O=C(O)[C@@H]1C[C@H]1[C@@H](NP(=O)(c1ccccc1)c1ccccc1)c1ccccc1,-1.4,i,1,3,24,115,105
CCOc1cc(C=C2C(=O)NC(=O)NC2=O)ccc1OCC(=O)N1CCOCC1,-2.0,i,1,-11,24,88,120
CCCCCCCCCOc1ccc2[nH]cc(CCN)c2c1,.,i,0.63,.,.,.,99
O=C1NCN(c2ccccc2)C12CCNCC2,-0.1,i,0.97,-8,-22,74,106
O=c1[nH]c(O)c(N=Nc2ccc([N+](=O)[O-])cc2)c(=O)[nH]1,.,i,0.84,-3,-33,50,106
CC(=NCCN1CCCCC1)c1c(O)n(Cc2ccccc2)c(=O)[nH]c1=O,-0.3,i,1.1,13,.,.,94

# Three entries drawn at random from the list so far, as already listed:
SMILES,GALR2 agonist,HSV augment,HSV augment primary fold,PKD1 inh,Insulin prom inh,Insulin prom inh cell count,RGS16-Gao
CCCCC1(CCCC)C(=O)NC(=Nc2cccc(C)c2)NC1=O,-2.5,i,1,-5,-44,58,94
Cc1cc(C)c(-n2c(O)c(/C=N/N3CCCCC3c3cccnc3)c(=O)[nH]c2=O)c(C)c1 (configuration not stated),0.6,i,1.2,5,.,.,42
COc1cc(/C=C2\C(=O)NC(=O)N(c3ccc(C)cc3)C2=O)cc(OC)c1O,.,i,1.2,8,.,.,95

# Bioassay records deposited in PubChem by several laboratories.
